# NPYLR7 agonist – activates Aedes aegypti NPYLR7 receptor; HEK293T NPYLR7/Galpha15, GCaMP6s calcium fluorescence; activation, % at 10 µM; 0.15% of 270,000 active; AID 1259423; in the data active = activation above about 40%;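 also: 0% = vehicle and 100% = reference agonist at the receptor; some compounds past the cut are filed as inactive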
# NPYLR7 agonist max-min – recorded beside NPYLR7 agonist, whose call it bears; activation, %; measured here: Max-Min RFU normalised activation; some inactives read as strong as hits;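 span of the calcium signal over five minutes; 0% = vehicle and 100% = native peptide agonist; compound fluorescence can raise it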
# Numbers without * were called inactive; i = inactive; & = joins results of further samples. An excerpt; rates above refer to the full screens.
SMILES,NPYLR7 agonist,NPYLR7 agonist max-min
O=C1CCCN1c1cccc(C2=NNC(=Nc3ccccc3)SC2)c1,1.5,-1.6
Cc1nn(CC#N)c(=O)c2c1cnn2-c1ccccc1,5.3,5.2
Cc1ccccc1N1CCN(C2CCCN(C(=O)c3c[nH]c(=O)[nH]3)C2)CC1 (stereo not drawn),16.2,12.3
COc1ccc(C(=O)N2C(C(=O)NCc3ccccn3)COC23CCN(C(=O)Cc2ccccc2)CC3)cc1 (stereo not drawn),1.8,8.9
COc1ccc(CCN(Cc2ccc(C)o2)C(=O)CN(CCN2CCOCC2)C(=O)c2ccco2)cc1OC,-2.7,-1.6
COc1ccc(OC)c(C2c3cccn3CCCN2Cc2ccc([N+](=O)[O-])cc2)c1 (stereo not drawn),-9.5,-7.6
CC(=O)C12c3ccccc3C(c3ccccc31)C1C(=O)NC(=O)C12 (stereo not drawn),-13.1,-20.9
Fc1ccccc1OCC1CCCN(Cc2nc(CC3CC3)no2)C1 (stereo not drawn),17.3&3.2,6.8&-1.2
COc1cc(OC)c(OC)cc1CO,3.8,0.5
CCc1ccc(NC(=O)Cn2c(-n3nc(C)cc3C)nc(C)c(CC)c2=O)cc1,3.4,0.6
COc1ccc2oc(CNC(=O)C3CC(=O)N(CC(C)C)C3)nc2c1 (stereo not drawn),-3.4,-3.6
O=C(NCCc1ccccc1)Nc1nnc([C@@H]2C[C@H](O)[C@@H](CO)O2)s1,-2.5,-4.8
CCOCCn1c(CN2CCOCC2)nc2c1c(=O)n(C)c(=O)n2C,0.5,-1.5
CC1(C)C2CC=C(C=NNC(=S)Nc3ccc(SC(F)F)cc3)C1C2 (stereo not drawn),0.5,7.2
Cc1ccc(OCCN(C)C(=O)Nc2ccn(CCC(N)=O)n2)cc1,6.6,4.6
CCN(Cc1cccc(F)c1)Cn1nc2n(C)c(=O)c3ccccc3n2c1=S,7.0,9.6
CC(C)(CN1CCOCC1)NC(=O)c1cn2c3c(cccc3c1=O)CC2,-3.1,-7.2
Cn1c(=O)c2c(nc(CN3CCc4ccccc4C3)n2CCCc2ccccc2)n(C)c1=O,-2.3,-2.3
CCn1c(C)cc(O)c(C(c2cccs2)N2CCCCC2)c1=O (stereo not drawn),13.7,7.2
COCCN(Cc1ccco1)Cc1ccc(C(O)(c2ccccc2)c2ccccc2)o1,12.7,13.8

# Some of the entries so far, field by field:
Molecule: COc1ccc2oc(CNC(=O)C3CC(=O)N(CC(C)C)C3)nc2c1 (stereo not drawn)
  NPYLR7 agonist: -3.4; NPYLR7 agonist max-min: -3.6
Molecule: O=C(NCCc1ccccc1)Nc1nnc([C@@H]2C[C@H](O)[C@@H](CO)O2)s1
  NPYLR7 agonist: -2.5; NPYLR7 agonist max-min: -4.8
Molecule: CCOCCn1c(CN2CCOCC2)nc2c1c(=O)n(C)c(=O)n2C
  NPYLR7 agonist: 0.5; NPYLR7 agonist max-min: -1.5
Molecule: CC1(C)C2CC=C(C=NNC(=S)Nc3ccc(SC(F)F)cc3)C1C2 (stereo not drawn)
  NPYLR7 agonist: 0.5; NPYLR7 agonist max-min: 7.2

# Of the compounds above, these have a furan ring, fused or not.
SMILES,NPYLR7 agonist,NPYLR7 agonist max-min
COc1ccc(CCN(Cc2ccc(C)o2)C(=O)CN(CCN2CCOCC2)C(=O)c2ccco2)cc1OC,-2.7,-1.6
COCCN(Cc1ccco1)Cc1ccc(C(O)(c2ccccc2)c2ccccc2)o1,12.7,13.8

# The list continues.
SMILES,NPYLR7 agonist,NPYLR7 agonist max-min
CCOC(=O)c1ccc(N2CCN(CC3=CC(C)(C)COc4ccc(OC)cc43)CC2)cc1,2.5,13.0
CCN1CCN(CC(=O)NCc2cccnc2Oc2ccccc2F)CC1,5.6,5.9
O=S(=O)(NCCNc1nc(-c2ccccc2Cl)nc2ccccc12)c1cccc(C(F)(F)F)c1,16.1,20.6
CN(Cc1ccccc1Cl)C(=O)Nn1cnc2ccccc21,-2.7,-2.2
CC(C)C(NC(=O)Nc1cc(C(=O)N2CCCC2)ccc1Cl)c1cccs1 (stereo not drawn),-0.8,-2.8
CC(NC(=O)C1CCN(CCOc2ccc(Cl)cc2)CC1)c1cccc2ccccc12 (stereo not drawn),19.3,10.6
CC[n+]1c(C)sc2ccccc21,2.3,0.1
Cc1cc(C(=O)N2CCOC(c3ccccc3)C2)ccc1N1CCNC1=O (stereo not drawn),5.0,2.6
O=C(Nc1nc(-c2ccccc2)ns1)N1CCc2[nH]cnc2C1c1cccnc1 (stereo not drawn),2.7,-1.1
Cc1cccc(C(=O)Oc2coc(CSc3ncccn3)cc2=O)c1,-11.6,-10.6
O=C(COc1ccc(F)cc1)NCc1csc(Br)c1,2.5,2.3
Cc1ccccc1S(=O)(=O)N1CCC(c2nc(-c3ccc(C(F)(F)F)cc3)no2)CC1,26.0,10.3
CCC1SC(=NS(=O)(=O)c2cccs2)N(C2CCCCC2)C1=O (stereo not drawn),-2.4,-4.4
COc1cccc(CN(Cc2nc(C(=O)NCCN3CCOCC3)co2)C(C)C(C)C)c1 (stereo not drawn),18.9,28.8
CCOC(=O)C1(CCOc2ccccc2)CCN(Cc2cccc3c2OCO3)CC1,15.0,7.6
C[C@@H](NC(=O)c1csc(COC(=O)c2ccccc2)n1)C(C)(C)C,-8.4,-15.9
OC(COCc1ccco1)CN(CCN1CCOCC1)Cc1cccs1 (stereo not drawn),23.3,21.0
O=C(CCn1cnnc1)N1CCCC(CCc2ccc(F)cc2)C1 (stereo not drawn),2.1,2.6
O=c1ccc(-c2ccco2)nn1CCNS(=O)(=O)Cc1ccccc1,-1.6,-3.0
CCCS(=O)(=O)Oc1ccc([N+](=O)[O-])cc1-c1nc2cc(S(=O)(=O)CC)ccc2o1,-0.2,2.2
COc1cccc2sc(N(CCCn3ccnc3)C(=O)/C=C/c3cccs3)nc12,-10.3,-17.3
C#CCN(CC(F)(F)F)S(=O)(=O)c1cn(C(C)CC)cn1 (stereo not drawn),6.4,-8.8
C=c1occc1=C1NN=C(SCC(=O)c2cc(C)n(C(C)C)c2C)O1,26.3,37.6
CCOC(=O)c1ccc(NC2CCCCC2)c(N)c1,-2.2,-3.8
c1ccc(-n2nnnc2N2CCN(c3ncccn3)CC2)cc1,-2.6,2.4
CCc1c(C)nn(-c2ccc(C(=O)NCc3ccc(OC)cc3)cc2)c1C,-8.6,-15.7
COc1cc2c(cc1OC)C(CNC(=O)c1ccc(Cl)cc1)N(Cc1cccc(C)c1)CC2 (stereo not drawn),4.9,13.8
O=C(NCc1ccco1)c1nnn(-c2ccccc2)c1CSc1ncccn1,-0.2,-4.0
Cc1ccc(OCCCN(C)C(=O)c2cn(-c3ccccc3)nn2)c(C)c1,1.9,0.9
O=C(O)CSc1ncccn1,-3.3,-10.1
CCn1nc(C)cc1C(=O)N1CCN(c2ncccc2C(=O)NCCc2ccc(OC)c(OC)c2)CC1,5.3,2.1
O=C(NNS(=O)(=O)c1c(F)cc(F)cc1Br)C1CCCCC1,10.5,5.0
CCOC(=O)CC1=NC2(CCCC2)Cc2cc(OC)c(OC)cc21,15.8,13.0
Cc1noc(C)c1/C=C1/COc2ccc(F)cc2C1=O,-1.0,i
Cc1ccc2cc(CN3CC(n4cccn4)C3)c(=O)[nH]c2c1,24.4,13.6
CCCNC(=O)C1(C)CCN(Cc2ccc(Oc3ccccc3)cc2)C1 (stereo not drawn),1.5,-1.0
N#Cc1ccc(C(=O)N(CCCN2CCOCC2)c2nc3c(F)cc(F)cc3s2)cc1,-4.6,-5.3
Nc1nccc(N2CCOC(CC(c3ccccc3)c3ccccc3)C2)n1 (stereo not drawn),3.1,0.8
CCc1noc(CN(CC)C(=O)c2ccc3ncsc3c2)n1,2.6,1.2
O=C(CC(c1ccccc1)c1cn(Cc2ccccc2)c2ccc([N+](=O)[O-])cc12)NCc1ccccn1 (stereo not drawn),13.2,18.3
CN(C)CCCN(C(=O)c1ccc(Br)s1)c1nc2c(F)cccc2s1,5.9,5.1
Cc1ccccc1CC1(CO)CCCN(C(=O)Nc2c(C)cccc2Cl)C1 (stereo not drawn),7.8&20.2,13.1&9.6
COc1ccc(N2CCN(c3cncc(-c4cccc(N)c4)n3)CC2)cc1OC,0.3,-6.4
c1ccc(-n2ccnc2)c(NCC2CCOCC2)c1,4.6&4.5,2.9&2.6
O=S(=O)(c1cc(Cl)ccc1Cl)N1CCCC1c1ccc2c(c1)OCCCO2 (stereo not drawn),-1.6,1.1
CCc1c(C#N)c(N)nc2sc(C(=O)Nc3ccccc3)c(N)c12,-10.5,-13.9
CCOCC(=O)Nc1ccc(OC(C)C)cc1C(F)(F)F,3.3,1.0
O=C(CC1CCCC1)N1CC=C(c2ccc(O)cc2)CC1,3.5,1.6
O=C(N[C@H]1CCCCNC1=O)c1csc(CSc2nnc(-c3ccco3)n2-c2ccc(Cl)cc2Cl)n1,26.2,31.4
Cc1cnccc1CNC(=O)Cn1nnnc1CN(C)C(C)C,2.1,-3.3

# One compound at a time (already shown).
# Profile of `O=S(=O)(c1cc(Cl)ccc1Cl)N1CCCC1c1ccc2c(c1)OCCCO2` (stereo not drawn) : NPYLR7 agonist: -1.6; NPYLR7 agonist max-min: 1.1
# Profile of `COc1ccc(N2CCN(c3cncc(-c4cccc(N)c4)n3)CC2)cc1OC` : NPYLR7 agonist: 0.3; NPYLR7 agonist max-min: -6.4
# Profile of `CCOCC(=O)Nc1ccc(OC(C)C)cc1C(F)(F)F` : NPYLR7 agonist: 3.3; NPYLR7 agonist max-min: 1.0

# Continued:
SMILES,NPYLR7 agonist,NPYLR7 agonist max-min
COc1ccc(OCCNC(=O)C2CCS(=O)(=O)C2)cc1 (stereo not drawn),-2.8,-5.0
CN(Cc1ccsc1)C(=O)Cc1n[nH]c(=O)c2ccccc12,3.6,-0.3
Cc1cccc(N2CCN(C(=O)CC3Sc4ccccc4NC3=O)CC2)c1C (stereo not drawn),-3.8,-4.0
CC1(C)OCC(C2OC(Nc3ccc(C(=O)NCC(=O)NC4CCCCNC4=O)cc3)[C@H]3OC(C)(C)O[C@@H]23)O1 (stereo partly drawn),-3.2,-10.1
CCc1nc(C)c(C(=O)N2CCc3c(nc(-c4ccccc4)[nH]c3=O)C2)o1,-1.5,-1.0
CC(=O)c1ccc(NC(=S)NNC(=O)CC#N)cc1,2.0,1.5
O=C(CSc1nc(O)cc(=O)n1C1CCCC1)NC1CC1,8.9,6.8
O=C(CSc1nc2c3ccccc3ncn2n1)Nc1cccc(Cl)c1,-4.2,-5.5
CCCCNC(=O)N(CCN1CCOCC1)CC(=O)N(Cc1ccc2c(c1)OCO2)Cc1ccc(C)o1,11.0,9.1
Cc1ccc(OCc2cc(-c3ccco3)on2)c([N+](=O)[O-])n1,1.0,2.4
COc1ccccc1OCc1cc(C(=O)N2CCCC(C(C)(C)O)C2)n[nH]1 (stereo not drawn),19.1,11.1
COCC(C)n1c(-c2ccccc2)csc1=Nc1cccc(C)c1 (stereo not drawn),1.5,3.2
CC(C)CCOc1ccc(CNCC(C)(C)N(C)C)cc1,11.1,7.0
COc1cccc(-n2cc(CNC(=O)Nc3ccc(F)cc3F)nn2)c1,10.1,7.6
O=C(c1ccc(F)cc1)N(Cc1nccn1Cc1ccc(C(F)(F)F)cc1)CC1CCCO1 (stereo not drawn),7.4,14.6
Cc1nn2c(-n3ccnc3C)cc(-c3ccccc3)nc2c1-c1ccccc1,4.2,1.2
OC(COc1ccccc1)CN(Cc1cccn1Cc1ccccc1F)CC1CCCCC1 (stereo not drawn),27.8,25.8
O=C(NCc1ccccc1Br)c1cncn1-c1cccc(-c2cccc3c2sc2ccccc23)c1,9.0,4.2
Cc1nnc(-c2cccc(C(C)N3CCCC3)c2)s1 (stereo not drawn),0.4,8.4
COc1ccc(-c2cc3c(=O)n(CC(=O)NCCC(C)C)ccn3n2)cc1,3.3,2.0
Cc1nc(CCNC(=O)c2cccc(C#CC(C)(C)O)c2)nc2c1CCC2,15.3,6.2
CCC1(CCC(=O)NC(Cc2ccccc2)c2ccccc2)CCC(=O)N1 (stereo not drawn),21.5,12.5
CCCNC(=O)Cn1nc2c(c1NC(=O)c1ccco1)CSC2,-8.4,-12.6
